# Bioassay records deposited in PubChem BioAssay by Broad Institute.
# FGF22 binding: shifts melting point of recombinant human FGF22 | recombinant FGF22 thermal shift, SYPRO orange fluorescence; percent of sucrose octasulfate shift, DMSO zero | 340,000 tested, 1.5% active | calls only at 9.99 µM | Q9HCT0;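 active = melting point raised past a set limit in the mean and every replicate; three in four hits are not shown here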
# Target sequence (Q9HCT0 whole entry, looked up): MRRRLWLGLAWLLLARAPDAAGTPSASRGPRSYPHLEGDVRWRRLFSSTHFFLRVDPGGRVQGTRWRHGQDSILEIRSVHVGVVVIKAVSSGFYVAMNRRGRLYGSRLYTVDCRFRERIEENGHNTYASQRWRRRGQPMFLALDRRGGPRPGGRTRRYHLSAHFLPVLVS
# Calls only; i = inactive. Some of the compounds tested, so the mix of outcomes need not match the whole.
SMILES,FGF22 binding
C[C@H](CO)N1C[C@H](C)[C@H](CN(C)S(=O)(=O)c2cccs2)OCCCC[C@H](C)Oc2ccc(NC(=O)c3ccccc3)cc2C1=O,i
COC(=O)C[C@H]1CC[C@H]2[C@@H](COc3ccc(NC(=O)Nc4ccc(Cl)cc4)cc3C(=O)N2C)O1,i
CCCC(=O)Nc1ccc2c(c1)C(=O)N(C)[C@@H]1CC[C@H](CC(=O)NCCOC)O[C@H]1CO2,i
COCC(=O)Nc1ccc2c(c1)C(=O)N(C)[C@H]1CC[C@H](CC(=O)NCc3cccc(F)c3)O[C@H]1CO2,i
CN1C(=O)c2cc(NC(=O)C3CC3)ccc2OC[C@H]2O[C@@H](CC(=O)NCc3cccc(F)c3)CC[C@@H]21,i
COc1ccccc1C(=O)N1CCN(C(=O)[C@H](CCc2ccccc2)NC(=O)[C@H]2O[C@@H](n3cnc4c(N)ncnc43)[C@H](O)[C@@H]2O)CC1,i
CCCC(=O)Nc1ccc2c(c1)C(=O)N(C)[C@H]1CC[C@H](CC(=O)NCC(F)(F)F)O[C@H]1CO2,i
CCC(=O)N1CC[C@H]2[C@@H]1c1cc(-c3cccc(F)c3)ccc1N(C)[C@H]2CO,i
COc1ccc(NC(=O)N(C)C[C@@H]2OCCCC[C@H](C)Oc3ccc(NS(=O)(=O)c4c(C)noc4C)cc3C(=O)N([C@H](C)CO)C[C@@H]2C)cc1,i
CCCNC(=O)Nc1ccc2c(c1)C(=O)N(C)[C@@H]1CC[C@@H](CC(=O)O)O[C@H]1CO2,i
COCCNC(=O)C[C@H]1C[C@H]2c3cc(NC(=O)Nc4ccccc4F)ccc3O[C@H]2[C@@H](CO)O1,i
O=C(N[C@H](c1cccc(Br)c1)[C@@H]1CCCC=C1c1ccccc1)C(F)(F)F,i
O=C(OCc1ccccc1)N1Cc2ccnnc2CC1c1ccccc1-c1ccc(C(F)(F)F)cc1 (configuration not stated),i
CCNC(=O)N1CCN(c2ccc(N3CCN(Cc4ccccc4)[C@@H](C)C3)c(C)c2)[C@@H](C)C1,i
COc1ccc2c3c([nH]c2c1)[C@@H](CO)NCC31CN(S(=O)(=O)c2cccs2)C1,i
C[C@H]1CN([C@@H](C)CO)C(=O)c2cc(-c3ccncc3)cnc2O[C@H]1CN(C)C(=O)Cc1cccnc1,i
COCC(=O)Nc1ccc2c(c1)[C@H]1C[C@@H](CC(=O)NCc3cc(F)ccc3F)O[C@@H](CO)[C@H]1O2,i
COc1ccc(S(=O)(=O)N(C)C[C@H]2Oc3ccc(NC(=O)Nc4ccc(F)cc4)cc3CC(=O)N([C@@H](C)CO)C[C@H]2C)cc1,i
COc1ccccc1-c1ccc(C2[C@@H]3CN(Cc4nccs4)C[C@H]2N3)cc1 (some centres not stated),i
C[C@H]1CCCCO[C@@H](CN(C)C(=O)Nc2ccc(C(F)(F)F)cc2)[C@@H](C)CN([C@@H](C)CO)C(=O)c2cc(NC(=O)Nc3ccc(C(F)(F)F)cc3)ccc2O1,i
Cc1ccc(S(=O)(=O)Nc2ccc3c(c2)CC(=O)N([C@H](C)CO)C[C@H](C)[C@H](CN(C)S(=O)(=O)c2ccc(Cl)cc2)O3)cc1,i
CN1C[C@H]2[C@@H](c3ccccc31)[C@@H](CO)N2C(=O)Nc1ccccc1,i
CCCn1cnnc1CNC(=O)[C@@H](Cc1ccccc1)NC(=O)[C@H]1O[C@@H](n2ccc(=O)[nH]c2=O)[C@H](O)[C@@H]1O,i
C=CC[C@]1(c2ccccc2)C(=O)N2C[C@H]3CON(C)[C@H]3C[C@H]2c2ccccc21,i

# An excerpt of these results, with the structure last.
FGF22 binding	compound
i	CCCC(=O)Nc1ccc2c(c1)C(=O)N(C)[C@@H]1CC[C@H](CC(=O)NCCOC)O[C@H]1CO2
i	COCC(=O)Nc1ccc2c(c1)C(=O)N(C)[C@H]1CC[C@H](CC(=O)NCc3cccc(F)c3)O[C@H]1CO2
i	CN1C(=O)c2cc(NC(=O)C3CC3)ccc2OC[C@H]2O[C@@H](CC(=O)NCc3cccc(F)c3)CC[C@@H]21
i	COc1ccccc1C(=O)N1CCN(C(=O)[C@H](CCc2ccccc2)NC(=O)[C@H]2O[C@@H](n3cnc4c(N)ncnc43)[C@H](O)[C@@H]2O)CC1

# Returning to the listing with the two entries that preceded the break.
SMILES,FGF22 binding
CCCn1cnnc1CNC(=O)[C@@H](Cc1ccccc1)NC(=O)[C@H]1O[C@@H](n2ccc(=O)[nH]c2=O)[C@H](O)[C@@H]1O,i
C=CC[C@]1(c2ccccc2)C(=O)N2C[C@H]3CON(C)[C@H]3C[C@H]2c2ccccc21,i
COc1ccccc1CNC(=O)C[C@@H]1CC[C@@H]2[C@H](COc3ccc(NC(C)=O)cc3C(=O)N2C)O1,i
COc1ccc(NC(=O)Nc2ccc3c(c2)CC(=O)N([C@H](C)CO)C[C@@H](C)[C@H](CN(C)C(=O)Nc2c(C)noc2C)O3)cc1,i
COCC(=O)Nc1ccc2c(c1)C(=O)N(C)[C@H]1CC[C@H](CC(=O)OC)O[C@H]1CO2,i
C[C@@H]1CN([C@H](C)CO)C(=O)c2cc(NC(=O)CCC(F)(F)F)ccc2O[C@@H](C)CCCCO[C@H]1CN(C)C(=O)Nc1cccc2ccccc12,i
C[C@@H]1CCCCO[C@@H](CN(C)C(=O)C2CCCCC2)[C@@H](C)CN([C@@H](C)CO)C(=O)c2cc(NS(=O)(=O)c3cccs3)ccc2O1,i
CC(C)NC(=O)Nc1ccc2c(c1)C(=O)N([C@H](C)CO)C[C@H](C)[C@H](CN(C)Cc1ccc3c(c1)OCO3)OCCCC[C@@H](C)O2,i
COc1ccc(S(=O)(=O)Nc2ccc3c(c2)C(=O)N([C@H](C)CO)C[C@H](C)[C@H](CN(C)C(=O)Nc2cccc4ccccc24)OCCCC[C@H](C)O3)cc1,i
CCC(=O)N1CC[C@@H]2[C@H]1c1cc(-c3cccc(F)c3)ccc1N(C)[C@@H]2CO,i
CNC(=O)C[C@H]1CC[C@H]2[C@@H](COc3ccc(NC(=O)Nc4c(C)noc4C)cc3C(=O)N2C)O1,i
C[C@H](CO)N1C[C@H](C)[C@H](CN(C)C(=O)Nc2cccc3ccccc23)OCCCC[C@H](C)Oc2ccc(NS(=O)(=O)c3cn(C)cn3)cc2C1=O,i
O=C(C[C@@H]1CC[C@@H]2[C@H](COC[C@@H](O)CN2C(=O)c2cnccn2)O1)N1CCN(c2ccccc2)CC1,i
CN1C(=O)c2cc(NC(=O)C3CCOCC3)ccc2OC[C@H]2O[C@@H](CC(=O)Nc3ccc4c(c3)CCCC4)CC[C@@H]21,i

# Of the compounds above, these have a thiophene ring, fused or not.
SMILES,FGF22 binding
C[C@H](CO)N1C[C@H](C)[C@H](CN(C)S(=O)(=O)c2cccs2)OCCCC[C@H](C)Oc2ccc(NC(=O)c3ccccc3)cc2C1=O,i
COc1ccc2c3c([nH]c2c1)[C@@H](CO)NCC31CN(S(=O)(=O)c2cccs2)C1,i
C[C@@H]1CCCCO[C@@H](CN(C)C(=O)C2CCCCC2)[C@@H](C)CN([C@@H](C)CO)C(=O)c2cc(NS(=O)(=O)c3cccs3)ccc2O1,i

# Following part
SMILES,FGF22 binding
O=C(C[C@@H]1CC[C@H]2NC[C@@H](O)COC[C@@H]2O1)NCCc1ccncc1,i
Cc1noc(C)c1NC(=O)Nc1ccc2c(c1)CC(=O)N([C@H](C)CO)C[C@H](C)[C@H](CN(C)S(=O)(=O)c1cn(C)cn1)O2,i
C[C@H](O)[C@@H]1C(=O)N2CCc3c([nH]c4c(-c5ccccc5)cccc34)[C@@H]2C[C@@H]1N(C)C(=O)/C=C/c1ccccc1,i
Cc1ccccc1NC(=O)Nc1ccc2c(c1)C(=O)N(C)[C@H]1CC[C@H](CC(=O)O)O[C@@H]1CO2,i
C[C@@H]1CN([C@H](C)CO)C(=O)Cc2cc(NS(=O)(=O)c3cccs3)ccc2O[C@H]1CN(C)Cc1ccncc1,i
O=C(C[C@@H]1CC[C@@H](NS(=O)(=O)c2ccc(F)cc2)[C@H](CO)O1)NCCN1CCCCC1,i
Nc1nc2c(ncn2[C@@H]2O[C@H](C(=O)NCCCc3ccccc3)[C@@H](O)[C@H]2O)c(=O)[nH]1,i
Cc1noc(C)c1S(=O)(=O)N(C)C[C@H]1OCCCC[C@@H](C)Oc2ccc(NS(=O)(=O)c3ccc(F)cc3)cc2C(=O)N([C@H](C)CO)C[C@@H]1C,i
C[C@@H]1CN([C@H](C)CO)C(=O)c2cc(NC(=O)NC3CCCCC3)ccc2O[C@@H](C)CCCCO[C@H]1CN(C)C(=O)c1ccncc1,i
C[C@@H]1CN([C@@H](C)CO)C(=O)c2cc(NC(=O)NC3CCCCC3)ccc2O[C@@H](C)CCCCO[C@@H]1CN(C)C(=O)Cc1ccccc1,i
CC(=O)Nc1ccc2c(c1)C(=O)N(C)[C@H]1CC[C@@H](CC(=O)NCC3CCCCC3)O[C@H]1CO2,i
Brc1ccc(CN2CCN(c3ncc(Cc4ccccc4)cn3)CC2)cc1,i
CCCN1CCCCC(NC(=O)c2ccccc2OC)C1=O (configuration not stated),i
C/C=C/c1ccc([C@H]2[C@@H](CO)N(C(=O)Cc3cccnc3)[C@@H]2CNC(C)=O)cc1,i
COC(=O)C[C@H]1CC[C@H]2[C@H](COc3ccc(NS(=O)(=O)c4ccccc4F)cc3C(=O)N2C)O1,i
COC(=O)C1=C(C)N(Cc2ccc(C(F)(F)F)cc2)C(=NCc2ccc(OC)cc2)NC1c1ccccc1C(F)(F)F (configuration not stated),i
COCc1cc(N2CCNC[C@H]2C)ccc1N1CCS(=O)(=O)CC1,i
CN(C)C(=O)c1cccc(-c2ccc(C3[C@H]4CNC[C@@H]3N4Cc3cccnc3)cc2)c1 (some centres not stated),i
C[C@@H]1C=CCCO[C@]12C(=O)N(Cc1ccc(F)cc1)c1cccc(Br)c12,i
CN1C[C@@H](O)COC[C@H]2O[C@@H](CC(=O)NC3CCC3)CC[C@@H]21,i
O=C(N[C@H](Cc1ccccc1)C(=O)N1CCN(C(=O)N2CCCCC2)CC1)[C@H]1O[C@@H](n2ccc(=O)[nH]c2=O)[C@H](O)[C@@H]1O,i
COc1ccccc1CNC(=O)C[C@H]1CC[C@@H]2[C@@H](COc3ccc(NC(C)=O)cc3C(=O)N2C)O1,i
Cc1noc(C)c1S(=O)(=O)N(C)C[C@H]1OCCCC[C@@H](C)Oc2ccc(NS(=O)(=O)c3ccc(F)cc3)cc2C(=O)N([C@@H](C)CO)C[C@@H]1C,i
CCCNC(=O)C[C@@H]1C[C@H]2c3cc(NC(=O)CN(C)C)ccc3O[C@H]2[C@H](CO)O1,i
O=C(O)C[C@@H]1CC[C@H]2[C@@H](COC[C@H](O)CN2S(=O)(=O)c2ccc(Oc3ccccc3)cc2)O1,i
CC(C)NC(=O)Nc1ccc2c(c1)C(=O)N(C)[C@@H]1CC[C@@H](CC(=O)NCC(F)(F)F)O[C@@H]1CO2,i
Cc1[nH]nc2c1C(c1cccc(C(F)(F)F)c1)N(Cc1ccccc1)C2=O (configuration not stated),i
CN1CCCCC(NC(=O)C(C)(C)C)C1=O (configuration not stated),i
COc1ccc2c3c([nH]c2c1)[C@@H](CO)N(Cc1cccnc1)CC31CN(C(=O)c2cccnc2)C1,i
COC(=O)N1Cc2ccnnc2CC1c1ccccc1-c1ccc(F)cc1 (configuration not stated),i
CCNC(=O)Nc1ccc2c(c1)C(=O)N(C)[C@@H]1CC[C@H](CC(=O)NCCN3CCCC3)O[C@H]1CO2,i
COc1ccc(NC(=O)N(C)C[C@@H]2Oc3ccc(NC(=O)Nc4ccc(C(F)(F)F)cc4)cc3C(=O)N([C@H](C)CO)C[C@H]2C)cc1,i
COC(=O)C[C@@H]1CC[C@@H]2[C@@H](COc3ccc(NS(=O)(=O)c4ccccc4F)cc3C(=O)N2C)O1,i
C[C@H](O)[C@@H]1C(=O)N2CCc3c([nH]c4cccc(-c5ccccc5)c34)[C@@H]2C[C@@H]1N(C)C(=O)c1ccccc1,i
CCCNC(=O)Nc1ccc2c(c1)C(=O)N(C)[C@@H]1CC[C@@H](CC(=O)O)O[C@@H]1CO2,i
Cc1ccc(S(=O)(=O)N2CC[C@@H]3[C@@H](CO)Nc4ccc(-c5ccc(C#N)cc5)cc4[C@@H]32)cc1,i
CC(C)C[C@H](NC(=O)C1CCCC1)C(=O)N1CCC[C@H]1C(=O)NCc1ccccc1,i
C[C@@H]1CCCCO[C@H](CN(C)C(=O)Nc2ccc(F)cc2)[C@H](C)CN([C@@H](C)CO)C(=O)c2cc(NS(=O)(=O)c3ccc(F)cc3)ccc2O1,i
Nc1nc2c(ncn2[C@@H]2O[C@H](C(=O)N[C@H](Cc3ccccc3)C(=O)NCC3CCCCC3)[C@@H](O)[C@H]2O)c(=O)[nH]1,i
CS(=O)(=O)Nc1ccc2c(c1)[C@H]1C[C@H](CC(=O)NCc3ccc(-c4ccccc4)cc3)O[C@@H](CO)[C@H]1O2,i
O=S(=O)(c1cccc(F)c1)N1[C@@H]2CNC[C@H]1C2c1ccc(-c2ccccc2F)cc1 (some centres not stated),i
CN1CCN(C(=O)C[C@@H]2CC[C@@H]3[C@H](COC[C@@H](O)CN3Cc3cccc(F)c3)O2)CC1,i
O=C(c1ccccn1)N1CC[C@@H]2[C@H]1c1cc(C#Cc3cccnc3)ccc1N[C@@H]2CO,i
Cc1ccccc1-c1ccc(C2[C@H]3CNC[C@@H]2N3Cc2cccnc2)cc1 (some centres not stated),i
C[C@@H]1CN([C@@H](C)CO)C(=O)c2cc(NC(=O)Nc3ccccc3)ccc2O[C@@H](C)CCCCO[C@@H]1CN(C)Cc1ccc(C(F)(F)F)cc1,i
CN(C)C(=O)C[C@@H]1C[C@H]2c3cc(NS(=O)(=O)c4ccc(F)cc4)ccc3O[C@H]2[C@H](CO)O1,i
C[C@@H]1CCCCO[C@@H](CN(C)C(=O)Nc2ccc3c(c2)OCO3)[C@@H](C)CN([C@H](C)CO)C(=O)c2cc(NS(=O)(=O)c3ccc(F)cc3)ccc2O1,i
OC[C@H]1[C@H](c2ccc(C#Cc3ccccc3)cc2)[C@@H]2CN(Cc3cncnc3)CCCCN12,i
